CtBP-E1A blk = blocks the CtBP interaction with E1A | AlphaScreen GST-E1A/His-CtBP binding, 1536-well; stronger effect = lower value; control for the full effect not named in the record | activity change, % (no concentration beside the values) | 340,000 compounds, 0.49% hits | AID 651724; in the data active means activity change below about -65%; inconclusive means about -30% to -65%; inactive means above about -30%; also: % is scaled to controls: 0 for no effect and ±100 for the full control effect
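Protein mix (5X: 125 nM each GST-E1A, His-CtBP) was incubated with pinned compound 2 h at 37 deg C in dark, in 50 mM Tris pH 8.0 buffer with 300 mM NaCl. Glutathione donor and nickel acceptor beads followed; AlphaScreen signal read after 1 h.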
Six1-Eya2 inh = blocks human Six1 binding to Eya2. Q15475+O00167. AlphaScreen GST-Six1/His-Eya2 binding, biochemical; stronger effect = lower value; control for the full effect not named in the record. activity change, % (no concentration beside the values). 360,000 compounds, 0.56% hits. AID 651725; in the data active = activity change below about -65%; inconclusive = about -30% to -65%; inactive = above about -30%; also: % is scaled to controls: 0 for no effect and ±100 for the full control effect
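AlphaScreen luminescence read after one hour at 37 °C in darkness. Pin-transferred compounds met GST-Six1 and His-Eya2 protein (5X stock 250 nM/500 nM) plus glutathione donor and Ni-chelate acceptor beads (5X, 50 ug/mL).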
D2 PAM = potentiates the human D2 dopamine receptor allosterically; DiscoveRx D2 beta-arrestin cells, luminescence, 90 min; 100% = 57 uM dopamine signal; potentiation, % (concentration not given with the values); 360,000 compounds, 0.23% hits; AID 624464; active = potentiation of 50% or more; inconclusive = 30% to 50%; inactive = 30% or less;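 also: tested on top of an EC20 dose of dopamine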
Target sequence (P14416 whole entry, looked up): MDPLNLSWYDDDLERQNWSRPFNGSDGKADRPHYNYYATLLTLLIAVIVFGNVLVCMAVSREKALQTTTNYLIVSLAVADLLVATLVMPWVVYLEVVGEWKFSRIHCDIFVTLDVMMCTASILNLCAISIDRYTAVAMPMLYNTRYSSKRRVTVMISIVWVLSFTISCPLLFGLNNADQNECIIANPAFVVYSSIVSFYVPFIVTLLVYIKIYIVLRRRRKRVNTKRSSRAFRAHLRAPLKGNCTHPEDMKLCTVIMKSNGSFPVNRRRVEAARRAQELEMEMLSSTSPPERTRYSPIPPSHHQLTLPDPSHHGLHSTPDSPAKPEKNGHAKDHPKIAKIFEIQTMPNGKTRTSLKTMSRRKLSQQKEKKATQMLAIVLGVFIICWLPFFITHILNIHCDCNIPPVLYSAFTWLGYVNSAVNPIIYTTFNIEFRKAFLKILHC
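PathHunter beta-arrestin assay in DiscoveRx D2 cells. Compounds were added with an EC20 of dopamine (50 nM final) for 90 min at 37 deg C. Luminescence was read 1 h after detection reagent, with 57 uM dopamine as the EC100 control.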
TRPV1 potentiator = enhances activation of the human vanilloid receptor TRPV1. Q8NER1. TRPV1-expressing cells, Fluo-8 calcium influx, capsaicin EC20 potentiation; host cell line not named in the record; control for the full effect not named in the record. potentiation, % at 8.33 µM. 320,000 compounds, 0.02% hits. AID 540277; active means potentiation above 80%; inconclusive means 30% to 80%; inactive means below 30%; also: 0% is about no effect
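TRPV1-expressing cells were cultured overnight at 35.5C and loaded with Fluo-8 calcium dye for 40 to 90 min at room temperature. After a 10 s baseline, compound was added and calcium influx was read kinetically for 3 min (ex 480/em 520 nm).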
Sfp PPTase inh = blocks B. subtilis Sfp PPTase activity; Q9F4F7; Biochemical Sfp PPTase activity, qHTS; Potency, µM, for the others: max response, negative = inhibition, actives largely listed as inhibitors; 310,000 compounds, 3.5% hits; active = well fitted inhibition curve with a large enough effect; inconclusive = small, poorly fitted or top-dose-only effect, or another doubt; inactive = no such curve, though single readings can be large or run the other way;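 also: the enzyme is Sfp with the accession as filed and its product quenches rhodamine fluorescence; potency is read from the fitted curve at half-maximal effect; 0% = enzyme reaction without inhibitor and -100% = no enzyme wells; top concentration of the series not given in the record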
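Fluorescence-quenching assay with 15 nM Sfp, 5 uM rhodamine-CoA and 12.5 uM BHQ-2-labelled ybbR peptide in pH 7.6 Hepes/MgCl2 buffer. Enzyme was pre-incubated with compound for 15 min at room temperature. Rate was taken from the 30-min fluorescence change (525/598 nm).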
PINK1 expr mod = changes PINK1 expression | PINK1 immunofluorescence, high-content cytometry, 24 h | Potency, µM (doses to about 76.6 µM), inactives show top-dose activation (PINK1 increase), usual class: activators | 410,000 compounds, 0.2% hits | AID 624263; active = well fitted activation curve with a large enough effect; inconclusive = small, poorly fitted or top-dose-only effect; inactive = flat fitted curve, though single readings scatter; cell line not stated here;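 also: potency is read from the fitted curve at half-maximal effect; % of control where 0% means no effect; nearly all actives have a fitted effect of over 65% in size; a mitochondrial uncoupler was the plate control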
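Fluorescence from anti-PINK1 antibody, together with nuclear and cell stains, was scanned on a laser-scanning cytometer. Before staining, stable-line cells were incubated 24 hours with compounds at 5 concentrations; primary antibody 12 h at 10 degrees C.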
D2 ag = activates the human D2 dopamine receptor | P14416 | DiscoveRx PathHunter D2 beta-arrestin, luminescence, 90 min; 100% = 57 uM dopamine signal | activation, % (concentration not given with the values) | 360,000 compounds, 0.084% hits | AID 624465; in the data active = activation above about 40%; inconclusive = about 15% to 40%; inactive = below about 15%; also: the text of the record calls up to 30% inactive
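Agonist mode: compounds alone added to overnight-plated D2 PathHunter cells for 90 min at 37 C, with 57 uM final dopamine (EC100) defining full response. Beta-arrestin recruitment detected by chemiluminescent reagent, read after 1 h at ambient temperature.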
* marks the source's active call; other numbers are inactive results; ? = inconclusive; . = not tested or not shown; & = joins results of further samples; [ ] = remark or other dose.

canonical_smiles	CtBP-E1A blk	Six1-Eya2 inh	D2 PAM	TRPV1 potentiator	Sfp PPTase inh	PINK1 expr mod	D2 ag
Cc1nnc(NC(=O)CSc2nccn2Cc2ccccc2)s1	-14	6	-5	1	2%	-2.4%&-2.5%	0.0
O=[N+]([O-])c1ccc(-c2ccc(S(=O)(=O)NCCN3CCCC3)cc2)cc1	-11	-16	-10	9	8%	-0.4%	6.0
COCCNC(=O)CSc1ccccc1C(=O)NC1CCSc2ccccc21 (stereo not drawn)	-20	-3	-6	8	-3%	2.1%	-4.8
O=C(COC(=O)C1CC2C=CC1C2)NCc1ccc(F)cc1 (stereo not drawn)	0	-4	-1	-18	11%	0.2%	0.2
O=C1C(Cl)=C(N2CCCCCC2)C(=O)N1c1ccc(Cl)cc1	.	12	-17	3	-10%	-1.2%	-4.1
COc1ccc(NC(=O)c2sc(SC)nc2N)cc1	7	-4	-3	-22	7%	.	1.1
CCOc1ccc(-n2c(C)c(C(C)=O)c3cc(OC(C)=O)ccc32)cc1	-3	6	-5	1	-4%	-0.8%	-5.5
S=c1[nH]nc(-c2ccco2)n1/N=C/C=C/c1ccccc1	-26	-21	-35	-10	-15%	0.5%	-3.1
O=C(COc1ccccc1)Nc1ccccc1Cl	.	8	-5	-20	-7%	1.5%	0.4
CC(C)c1ccccc1NC(=O)COC(=O)C1(C)CC1(Cl)Cl (stereo not drawn)	5	9	1	-5	10%	-0.6%	-7.5
COc1ccc(CNC(=O)CCN2C(=O)c3ccccc3S2(=O)=O)cc1	0	2	-11	2	.	1.1%	-4.6
COc1ccc(S(=O)(=O)NC2CC3CCC2C3)cc1Br (stereo not drawn)	.	1	-11	0	-2%	2.7%	-2.5
O=C(O)c1ccc(N=Cc2c(O)ccc3ccccc23)cc1	2	0	3	5	0%	-0.7%	6.0
CC(NC(=O)c1ccc(S(=O)(=O)Nc2ccccc2)cc1)c1ccc(S(N)(=O)=O)cc1 (stereo not drawn)	0	-3	1	-6	.	-2.1%	-0.1
O=C(COC(=O)c1cc(S(=O)(=O)N2CCOCC2)ccc1Cl)NC1CCCCC1	-8	2	-10	.	.	-0.2%	-2.2
O=C(COC(=O)c1ccc(O)cc1)Nc1ccc2c(c1)OCCO2	-12	11	-6	.	.	0.4%	0.7
CC1(c2ccccc2Cl)NC(=O)N(CC(=O)Nc2ccc(N3CCOCC3)cc2)C1=O (stereo not drawn)	0	-1	0	.	.	0.9%	-0.3
CCn1cc(/C=C(/C#N)S(=O)(=O)c2ccccc2)cn1	47	0	-9	?	-9%	-0.5%[38.3 µM]	-1.1
COc1ccc(CN2C(=O)c3cccnc3C2=O)cc1S(=O)(=O)NCc1ccco1	.	-7	-2	9	12%	-0.6%	1.8
COc1ccc2c(CN3CCCCCCC3)cc(=O)oc2c1	6	-4	-4	.	.	0.6%	-2.1
COC(=O)CCCC1=CC2=C(c3ccccc3)C(=O)C(C)(OC(=O)C3CCCC3)C(=O)C2=CN1C1CC1 (stereo not drawn)	-4	-14	-13	-24	-15%&12%	1.0%	-3.8
O=C(N/N=C/c1cc([N+](=O)[O-])ccc1O)NC12CC3CC(CC(C3)C1)C2	-11	-7	-32	?	2%	4.5%	-3.0
CC(=O)c1ccc(OC(=O)C2CSC3(C)CCC(=O)N23)cc1 (stereo not drawn)	7	8	11	2	.	0.5%	0.3
O=[N+]([O-])c1cccc(S(=O)(=O)NCC2CC3CCC2C3)c1 (stereo not drawn)	7	-2	-1	-1	-3%	0.9%	0.0
Fc1ccc(CN2CCCCCCC2)cc1F	5	5	1	-2	-10%	1.2%	0.5
COc1cccc(CN(C)C(=O)C2CCC(=O)N(Cc3cccc(F)c3)C2)c1 (stereo not drawn)	2	4	-6	22	22%	0.1%	-3.1
CCOc1cc(CNCc2ccc3c(c2)OCO3)ccc1OC	5	-4	-4	-2	23%	0.1%	-0.6
N#Cc1c(N)nc2c(c1-c1ccc(Br)s1)CCCC2	3	7	2	-3	5%	-0.5%	0.4
Cc1ccc(NC(=O)CN2CCc3ccccc3C2)cc1C	-1	-1	0	-18	3%	0.2%	-4.4
CCCC(=O)N1CCC1(C)C(=O)Nc1cccc(OC(C)C)c1 (stereo not drawn)	0	-4	-8	.	.	1.4%	-6.4
CC(=O)Nc1ccc(S(=O)(=O)NCCCN2CCOCC2)cc1	5	5	-8	2	15%	0.7%	-3.2
CCCN1CCC(NC(=O)C2CCCCC2C(=O)O)CC1 (stereo not drawn)	-1	-1	-6	6	2%	-0.7%	-3.6
Cc1ccc(S(=O)(=O)NCC(=O)NC2CCCCCC2)cc1	3	6	-2	-11	5%	3.2%[38.3 µM]	-0.1
COc1cc(OC)c2c(=O)cc(-c3ccccc3)oc2c1	-4	0	-22	12	10%	1.3%	-0.9
COC(=O)c1ccccc1NC(=O)N1CCN(S(C)(=O)=O)CC1	12	3	-2	-7	15%	-1.1%	0.9
COc1ccc(NC(=O)CN2CCCN(S(=O)(=O)c3ccc(F)cc3)CC2)c(OC)c1	0	0	0	-9	16%	3.5%	6.3
COCC(C)NC(=O)C1CCN(S(=O)(=O)c2ccc3ccccc3c2)CC1 (stereo not drawn)	10	-2	10	-6	.	5.0%	-6.7
O=C(O)c1ccc(/C=N/n2c(C3CCCCC3)n[nH]c2=S)cc1	8	7	-6	-5	16%	2.4%	-2.8
COc1ccc(CNC(=O)C2CCN(S(=O)(=O)c3ccc(Br)s3)CC2)cc1	-1	3	1	-11	20%	-1.5%	3.0
CCN(C(=O)CSc1nnc(-c2ccccc2)n1C)C1CCS(=O)(=O)C1 (stereo not drawn)	4	2	-9	-11	-7%	-1.3%	-5.7

Part of the list above in a different format.
Each structure is followed by: CtBP-E1A blk	Six1-Eya2 inh	D2 PAM	TRPV1 potentiator	Sfp PPTase inh	PINK1 expr mod	D2 ag
- COC(=O)CCCC1=CC2=C(c3ccccc3)C(=O)C(C)(OC(=O)C3CCCC3)C(=O)C2=CN1C1CC1 (stereo not drawn)
→ -4	-14	-13	-24	-15%&12%	1.0%	-3.8
- O=C(N/N=C/c1cc([N+](=O)[O-])ccc1O)NC12CC3CC(CC(C3)C1)C2
→ -11	-7	-32	?	2%	4.5%	-3.0

Going on with the list:
canonical_smiles	CtBP-E1A blk	Six1-Eya2 inh	D2 PAM	TRPV1 potentiator	Sfp PPTase inh	PINK1 expr mod	D2 ag
O=C1Nc2cccc3c2N(CCC3)C2=C1CCC2	2	-5	-18	.	.	2.2%	-0.5
Cc1cc(Cl)ccc1C(=O)C1CCCN(C(=O)c2ccc3ncccc3c2)C1 (stereo not drawn)	0	17	-8	-1	8%	-0.2%	4.3
CC(C)(C)[C@@H]1COC(=O)[C@H](Cc2ccc(F)cc2)CC/C=C\C[C@@H](CC(=O)NCCO)C(=O)N1	4	2	.	.	.	-0.1%	-1.8
CC(=O)c1cccc(NC(=O)c2cnn3ccccc23)c1	-20	-2	-7	-3	3%	2.9%	-4.7
Cc1nc(CN2CCN(C(=O)NC3(c4ccccc4)CC3)CC2)cs1	6	9	-15	8	15%	-0.9%	-3.7
COc1ccccc1CNc1nc(NCCOc2ccccc2Cl)c2sccc2n1	-11	-4	-22	.	.	?	4.9
N#Cc1nc(COc2ccccc2F)oc1NCCc1ccccc1	-12	-18	-11	-5	5%	-1.8%	-5.3
COc1ccccc1N1C(=O)CC(N2CCN(c3ccc([N+](=O)[O-])cc3)CC2)C1=O (stereo not drawn)	-5	-1	-16	-2	15%	1.2%	-6.3
O=C(CNC(=O)c1ccco1)Nc1ccc(F)cc1	-96*	2	-29	6	9%	-0.9%	-1.5
COCCNC(=O)C(c1ccc(OC)cc1)N(C(=O)Cn1nnc2ccccc21)c1cccnc1 (stereo not drawn)	11	3	-2	1	?	0.3%	-1.1
Cc1ccc(/C=N/N2CCN(c3ccccn3)CC2)o1	.	4	-12	1	4%	1.1%	-3.8
Cc1ccc(C)c(OCCC(=O)NNC(=O)Cn2nc(C)cc2C)c1	3	-1	-31	?	.	2.0%	-8.9
COc1ccc(NS(=O)(=O)c2cc(NC(=O)Cc3cccs3)ccc2C)cc1	-5	-2	3	5	3%	2.7%	-0.7
CSCC[C@H](NC(=O)OC(C)(C)C)C(=O)N/N=C/c1c(C)[nH]c(=O)[nH]c1=O	-25	-30	1	-1	4%	0.3%	-0.6
Cc1ccccc1Nc1nc(N)nc(COC(=O)CCC(=O)c2ccc(F)cc2)n1	-4	-6	-27	-6	.	-1.9%	-2.9
CC(C)(C)c1cc(NC(=O)c2cccs2)no1	7	3	-4	.	.	0.7%	-2.7
O=C1CC(C(=O)O)S/C(=N\N=C\c2ccc(Br)cc2)N1 (stereo not drawn)	-7	3	-10	-2	16%	-2.2%	0.3
C=C(C)CSc1nc2sc3c(c2c(=O)n1-c1ccc(OC)cc1)CCN(C)C3	-18	-24	-8	1	-6%	-2.1%	-0.9
COc1ccc(Cl)cc1NC(=O)CN(C1CCCCC1)S(C)(=O)=O	3	-2	-18	1	-3%	1.5%	-3.2
O=C(COC(=O)c1cccs1)NCc1ccccc1	2	0	-13	-11	-20%	-0.4%	-3.3
Cc1ccc(NC(=O)CN(C)S(=O)(=O)c2cccs2)cc1C	8	3	9	7	4%	.	-1.5
Cc1cc(C(C)(C)C)oc1C(=O)O	.	-1	-3	-5	28%	-1.8%	3.1
O=P(Cc1ccccc1O)(c1ccccc1)c1ccccc1	22	-6	-9	15	6%	-0.9%	0.5
Cc1ccc2c(c1)C(=O)CC1(CCC(C(C)(C)C)CC1)O2 (stereo not drawn)	.	9	-4	-48	-4%	15%	-0.5
CCCc1cc(C(=O)N/N=C/c2cccn2C)cs1	-16	-30	-15	-15	2%	0.8%	-4.7
Cc1ccc(C(=O)CN(CCC(=O)O)C(=O)c2ccncc2)cc1	9	-1	-4	-12	.	0.7%	-1.1
Cc1cccc(OCC(O)CN2CCc3ccccc3C2)c1 (stereo not drawn)	.	3	-4	-5	12%	6.8%	-1.9
COc1cc(NS(=O)(=O)c2ccc(NC(=S)NC(=O)/C=C/c3ccc(OC)c(OC)c3)cc2)ncn1	.	-17	-2	7	-9%	9.1%	?
